Bioassay records (PubChem)
MLL AF4-AF9 inh – inhibitors of human MLL-AF4/AF9 interaction. AlphaScreen, biotin-AF4 peptide binding to FLAG-AF9. 0.47% of 350,000 active. AID 651704. inhibition, % at 10 µM;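 active = every replicate reaching a set inhibition limit, whatever the replicate mean, cut at about 25% in these data; inconclusive = mean inhibition reaches that limit but some replicates miss it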;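 note: 0% = plate neutral control median and 100% = total signal loss; the record names both 10 and 1 µM as test concentration; the first replicate is given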
Target sequence (P42568 whole entry, looked up): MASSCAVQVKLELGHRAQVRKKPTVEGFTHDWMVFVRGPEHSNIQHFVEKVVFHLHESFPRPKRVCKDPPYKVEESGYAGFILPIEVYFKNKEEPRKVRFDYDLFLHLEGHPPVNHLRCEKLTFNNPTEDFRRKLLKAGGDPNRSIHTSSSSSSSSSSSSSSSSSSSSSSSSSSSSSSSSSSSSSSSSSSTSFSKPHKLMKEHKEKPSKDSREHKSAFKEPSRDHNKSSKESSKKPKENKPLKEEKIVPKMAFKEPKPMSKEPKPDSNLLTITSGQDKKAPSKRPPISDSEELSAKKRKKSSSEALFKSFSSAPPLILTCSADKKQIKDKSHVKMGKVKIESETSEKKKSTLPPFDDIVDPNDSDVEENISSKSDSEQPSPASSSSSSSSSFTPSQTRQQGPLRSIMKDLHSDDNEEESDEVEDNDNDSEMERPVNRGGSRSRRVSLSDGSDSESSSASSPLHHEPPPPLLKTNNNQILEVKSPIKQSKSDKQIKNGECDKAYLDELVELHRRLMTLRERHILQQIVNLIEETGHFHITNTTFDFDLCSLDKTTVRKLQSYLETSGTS
E coli growth – blocks Escherichia coli growth. OD600, 23 h; hits give low values. OD600 absorbance (concentration not given with the values). 0.21% of 330,000 active. AID 1053175;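 active = OD600 absorbance below the run mean of sample wells minus 3.6 SD, in any replicate, cut at about 0.56 in these data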;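 note: stock transfer was 300 nL into about 60 µL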
ALR inh – blocks human ALR sulfhydryl oxidase activity | 3.8% of 290,000 active | purified ALR, DTT oxidation, H2O2 HRP-luminol luminescence | P55789 | inhibition, % (no concentration beside the values) | AID 485317;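 active = mean and each replicate at 75% or more; inconclusive = only one of the two met; inactive = neither met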;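 note: stock transfer was 7.5 nL into about 7.5 µL; 0% = neutral wells and 100% = wells with inactivated enzyme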
Target sequence (P55789 whole entry, looked up): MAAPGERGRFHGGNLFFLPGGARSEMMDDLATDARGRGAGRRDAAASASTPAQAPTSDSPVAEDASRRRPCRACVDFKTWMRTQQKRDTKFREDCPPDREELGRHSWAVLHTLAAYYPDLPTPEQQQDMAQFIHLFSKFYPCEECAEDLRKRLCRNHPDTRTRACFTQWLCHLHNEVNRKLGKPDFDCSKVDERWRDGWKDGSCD
Vif A3G – inhibitors of Vif binding to APOBEC3G peptide, primary screen, biochemical, TR-FRET, GST-Vif 1-94, biotin-A3G peptide, dose response retest (AID 1117319) | TR-FRET GST-Vif / biotin-A3G peptide binding; higher % means a stronger effect; test concentration not given here; strong numbers were not always called active | one-dose inhibition, %; IC50 in µM for titrated hits | 0.57% of 260,000 active;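 active = above the screen mean plus three standard deviations and confirmed in dose response; inconclusive = results disagree or hit not tested in dose response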;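 note: Vif residues 1-94 fused to GST binding biotinylated APOBEC3G peptide 110-148; 0% = full assay without inhibitor and 100% = GST in place of GST-Vif; retest series ran down from 100 µM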
rRNA inh HTS – inhibits bacterial ribosomal RNA function over humanized ribosomes | 1.6% of 350,000 active | AID 720706 | GFP signal change (wild-type ribosome), % (no concentration beside the values) | E. coli WT GFP vs humanized-ribosome RFP mutants, fluorescence, 24 h; hits give low values; DMSO median 0, no signal -100;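 active = significant combined selectivity score with lowered wild-type GFP, culture density cut under 30%, mutant RFP and density less affected; inactive = any of these conditions unmet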; note: one replicate is shown; some compounds called inactive have numbers as strong as hits
FGF22 binding – shifts melting point of recombinant human FGF22; Q9HCT0; recombinant FGF22 thermal shift, SYPRO orange fluorescence; percent of sucrose octasulfate shift, DMSO zero; calls only at 9.99 µM; 1.5% of 340,000 active; AID 651658;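 active = melting point raised past a set limit in the mean and every replicate; inconclusive = no clear call; three in four hits are not shown here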
Target sequence (Q9HCT0 whole entry, looked up): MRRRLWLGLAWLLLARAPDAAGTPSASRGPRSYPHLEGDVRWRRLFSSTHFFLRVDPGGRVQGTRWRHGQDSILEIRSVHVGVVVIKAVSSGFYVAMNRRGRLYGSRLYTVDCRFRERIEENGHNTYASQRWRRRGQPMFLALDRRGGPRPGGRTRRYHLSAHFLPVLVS
HNF4A DNA FP – change in binding of human HNF4 alpha to DNA | P41235 | HNF4a-FITC DNA binding, fluorescence polarization, 1 h | activity change, % at 10 µM | 0.3% of 360,000 active; in the data active = activity change above about 30%, passing the limit was not always enough;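 note: controls were the assay level and a saturating level of protein; the project sought stronger binding though the title names inhibitors; some compounds called inactive have numbers as strong as hits; positive values seem to mean higher polarization but the record does not say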
rRNA inh HTS OD600 – recorded beside rRNA inh HTS, whose call it bears; OD600 change, %; measured here: OD600 growth;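 optical density of the mix in the first replicate; 0 = DMSO median and -100 = no signal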
rRNA inh HTS RFP – further read-out of rRNA inh HTS, marked with its call; RFP signal change, %; measured here: RFP humanized mutant strains;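 first replicate; 0 = DMSO median and -100 = no signal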
An asterisk follows results filed as active; i = inactive; ? = inconclusive; nt = no result given; & = joins results of further samples. These rows are one share of the data (hit frequency here may not be typical).

Every second line gives: rRNA inh HTS, rRNA inh HTS OD600, E coli growth, Vif A3G, rRNA inh HTS RFP, HNF4A DNA FP, ALR inh, FGF22 binding, MLL AF4-AF9 inh
CCCn1c(N)c(C(=O)CSc2ncc(C(F)(F)F)cc2Cl)c(=O)[nH]c1=O
→ -18, -20, 0.68, 6%, 1.8, -2.6, 17, i, -0.8
COc1ccc(-c2cnc(SCCNC(=O)c3ccc4c(c3)OCO4)[nH]2)cc1
→ -1, 0, 0.64, -2%, -0.5, 5.6, 14, i, -1.4
CN1CCN(c2ncnc3c2ncn3[C@H]2CN(Cc3cccs3)C[C@@H](CO)O2)CC1
→ 8, 14, nt, nt, 5.8, 0.2, nt, i, -1.6
CCCNC(=O)Nc1ccc(C)cc1C
→ 7, 11, nt, -12%, -2.6, -3.6, -1, i, 2.0
COC(=O)c1ccccc1NC(=O)CSc1nc(NC(=O)c2ccccc2)c2c(C)c(C)oc2n1
→ nt, nt, 0.71, -45%&-4%, nt, -0.1, 10, nt, nt
Cc1ccc(C(=O)N/C(=C\c2ccccc2)C(=O)NCc2ccncc2)cc1
→ 7, 4, 0.65, nt, 0.8, -4.1, -6, i, 0.2
O=C(O)C1CCN(C(=O)c2ccc3c(c2)OCO3)CC1
→ 6, 6, 0.7, nt, 1.9, -0.2, -9, i, -0.9
CCCCOC(=O)CSCC(=O)Nc1cc(C)on1
→ nt, nt, 0.72, -3%, nt, -1.1, -6, nt, nt
C[C@@H]1CN([C@H](C)CO)C(=O)c2cc(NC(=O)c3ccccc3)ccc2O[C@@H](C)CCCCO[C@@H]1CN(C)Cc1ccc2c(c1)OCO2
→ -3, -6, nt, nt, 9.0, nt, nt, i, 5.9
CCCCCCCC(=O)Nc1cc(C(=O)NCCC)ccc1N1CCC2(CC1)CC(c1ccccc1)=NO2
→ 8, 9, 0.68, nt, 5.1, 3.0, -2, i, -2.6
CC(C)CNC(=O)[C@H](Cc1ccccc1)NC(=O)c1ccco1
→ nt, nt, 0.69, 24%, nt, -2.2, -10, nt, nt
COc1ccccc1-c1ccc(OCCCN2CCC(C(O)(c3ccccc3)c3ccccc3)CC2)cc1
→ -52, -70, nt, nt, -12, nt, nt, i, 9.2
Oc1ccccc1C=NN1CCCCCC1
→ -4, -7, 0.67, -4%, -6.6, -2.0, nt, i, 1.7
CCc1ccc2oc(=O)cc(CN3CCN(CCO)CC3)c2c1
→ nt, nt, 0.66, 5%, nt, 0.9, 0, nt, nt
C[C@H]1CN([C@@H](C)CO)C(=O)c2cccc(NS(=O)(=O)c3ccc(Cl)cc3)c2O[C@H]1CN(C)C(=O)Nc1ccc(F)cc1
→ -2, -2, nt, nt, 1.6, nt, nt, i, 3.4
C[C@H](CO)N1C[C@H](C)[C@@H](CN(C)Cc2ccc(Cl)c(Cl)c2)Oc2ccc(NS(C)(=O)=O)cc2C1=O
→ -7, -7, nt, nt, 0.1, nt, nt, i, 4.1
COc1ccccc1NC(=O)Nc1cccnc1
→ 0, 5, nt, nt, -2.3, 3.0, 2, i, -0.5
CC(C)NC(=O)Nc1ccc2c(c1)C(=O)N(C)[C@H]1CC[C@@H](CC(=O)NCC3CCCCC3)O[C@@H]1CO2
→ 2, 7, nt, nt, 0.3, nt, nt, i, -0.5
CCOC(=O)/C(C#N)=C/c1ccc(SC)cc1
→ 12, 9, nt, -1%, 1.6, -7.2, -2, i, 3.4
COc1ccc(NC(=O)CN(C)C(=O)CNC(=O)c2ccc3ccccc3c2)cc1
→ -10, -12, 0.69, -10%, 1.1, 4.1, nt, i, -2.5
Cc1nn2c(NCCOCCO)c3c(nc2c1-c1ccccc1)CCCC3
→ nt, nt, 0.74, 1%, nt, 3.4, 86*, nt, nt
CCOc1cc(/C=C(\C#N)C(=O)Nc2cccc(C(=O)O)c2)ccc1OCc1ccc(Br)cc1
→ 8, 16, 0.7, nt, -0.2, -5.2, 4, i, -2.3
C[C@H](CO)N1C[C@H](C)[C@H](CN(C)C(=O)CN2CCOCC2)Oc2ncc(-c3ccncc3)cc2C1=O
→ 8, 13, nt, nt, -1.2, nt, nt, i, -4.4
O=[N+]([O-])c1cccc(-c2cn3ccccc3n2)c1
→ 3, 7, 0.66, -8%, -0.8, -8.3, -2, i, 1.2
COc1ccc(NC(=O)c2cnc3sccn3c2=O)cc1
→ nt, nt, 0.68, -2%, nt, -4.2, -5, nt, nt
O=S(=O)(NCc1ccccc1)c1ccc2c(c1)OCCO2
→ nt, nt, 0.66, -5%, nt, -2.3, -6, nt, nt
CCCNC(=O)C[C@H]1CC[C@@H]2[C@H](COc3ccc(NC(=O)c4ccc(C(F)(F)F)cc4)cc3C(=O)N2C)O1
→ -3, -5, nt, nt, 0.3, nt, nt, i, 0.1
O=C(Nc1ccccc1)N[C@H]1CC[C@H](CCNS(=O)(=O)c2ccccc2F)O[C@H]1CO
→ -1, 4, nt, nt, -0.1, nt, nt, i, 1.8
CCC(=O)Nc1nnc(Cc2ccccc2)s1
→ nt, nt, 0.66, 2%, nt, 1.5, -4, nt, nt
O=C(CC1C(=O)NCCN1Cc1cccc(C(F)(F)F)c1)NCCCOc1cccnc1 (centres undefined)
→ 6, 1, 0.65, nt, -0.4, -3.4, 0, i, -9.7
Cc1nc(CC(=O)Nc2nccs2)cs1
→ 11, 15, 0.64, -1%, 2.0, 5.2, -7, i, 0.9
Brc1ccc(-c2nc(-c3ccccn3)no2)o1
→ nt, nt, 0.67, -5%, nt, 0.0, 16, nt, nt
C[C@@H]1CN([C@@H](C)CO)C(=O)Cc2cc(NC(=O)NC3CCCCC3)ccc2O[C@H]1CN(C)Cc1ccc2c(c1)OCO2
→ -7, -30, nt, nt, 2.3, nt, nt, i, 6.8
CCOC(=O)C1=CSC2=NS(=O)(=O)CCN12
→ 5, 4, 0.69, 9%, -3.2, 3.4, -3, i, 2.1
Cc1ccccc1NC(=O)c1ccc(F)c(S(=O)(=O)N2CCCCC2)c1
→ -11, -6, 0.65, 0%, -4.5, 0.4, -28, i, 1.0
COc1cccc(CNCCc2c[nH]c3ccccc23)c1OCc1ccccc1
→ -52, -80, 0.64, 56µM*, -22, -1.0, 8, i, 27*
O=S(=O)(c1ccccc1F)N1CCC(Oc2ccc(-n3cnnn3)cc2)CC1
→ -28*, -19*, 0.71, nt, 2.5*, -2.1, -36, i, 1.2
COc1ccc(OC)c(NC(=O)CSc2nncc3ccc(OC)c(OC)c23)c1
→ -14, 18, 0.67, ?, 3.9, -3.4, nt, i, 5.9
O=C(COc1ccccc1F)Nc1nc(-c2ccccn2)cs1
→ nt, nt, nt, -5%, nt, -1.9, -6, i, 0.4
C[C@@H]1CN([C@@H](C)CO)C(=O)Cc2cc(NC(=O)Nc3cccc4ccccc34)ccc2O[C@@H]1CN(C)S(=O)(=O)c1ccccc1
→ 1, -5, nt, nt, 0.2, nt, nt, i, -12
O=C(COc1ccc(-c2ccccc2)cc1)NNC(=O)Nc1ccccc1
→ 2, 4, 0.69, -9%, -1.4, -3.5, -2, i, -1.8
CCN(CC(=O)NCc1cccs1)C(=O)COc1ccc(C(C)=O)cc1
→ 6, 20, 0.69, -11%, -0.9, 1.6, 2, i, -3.2
COCCNC(=O)C1(C)CCCN(C(=O)c2ccc(N(C)C)cc2)C1 (centres undefined)
→ 9, 15, nt, nt, 0.5, 2.4, nt, i, -1.5
O=C(c1ccc(F)cc1)N1C[C@@H]2[C@H](c3ccccc31)[C@H](CO)N2C(=O)c1ccccc1
→ 2, 1, nt, nt, -3.1, nt, nt, i, -1.2
CNC(=S)Nc1ccccc1-c1ccccc1
→ nt, nt, 0.66, -8%, nt, 2.1, 13, nt, nt
Cc1cc(C(=O)N/N=C/c2ccc3c(c2)OCO3)c(C)n1-c1ccc(F)cc1
→ -4, 1, nt, 12%, 6.0, 3.5, -3, i, 0.1
O=C(CSc1ncn[nH]1)Nc1ccc2c(c1)OCCO2
→ nt, nt, 0.71, 7%, nt, 1.3, -41, nt, nt
CCOc1ccc(C(=O)Nc2nnc(S(=O)(=O)Nc3ccccc3C)s2)cc1
→ 0, -1, 0.7, nt, 1.6, 0.9, -2, i, 0.9
O=S1(=O)CCOCCCN1Cc1ccc(Cl)cc1
→ 6, 5, 0.7, nt, -0.5, 2.0, -11, i, -0.2
O=C(NC1CC2CCCC(C1)N2C(=O)Nc1ccccc1Cl)C1CC1 (centres undefined)
→ 3, 4, 0.67, nt, 0.8, -0.7, -15, i, 3.4

New compounds follow.
Every second line gives: rRNA inh HTS, rRNA inh HTS OD600, E coli growth, Vif A3G, rRNA inh HTS RFP, HNF4A DNA FP, ALR inh, FGF22 binding, MLL AF4-AF9 inh
O=C(Nc1ccccc1)c1cccc(S(=O)(=O)Nc2ccccn2)c1
→ nt, nt, 0.7, 2%, nt, -3.4, 8, nt, nt
CCOC(=O)c1cnc(SCc2ccccc2)nc1N
→ nt, nt, 0.65, ?, nt, 2.9, 1, nt, nt
C[C@@H]1CN([C@@H](C)CO)C(=O)c2cccc(NC(=O)C3CCOCC3)c2O[C@H]1CN(C)C(=O)Nc1ccc(F)cc1
→ 2, 8, nt, nt, 0.5, nt, nt, i, -1.1
COc1ccc(NC(=O)CN(C)C(=O)c2cccc(S(=O)(=O)N3CCCc4ccccc43)c2)cc1
→ 0, -21, 0.68, 4%, -2.4, -2.1, -3, i, -6.8
CC1CCC2C(=O)N(c3cccc(C(=O)Nc4ccccc4Cl)c3)C(=O)C2C1 (centres undefined)
→ 9, 15, 0.73, nt, 4.8, 1.3, -2, i, -4.9
Clc1ccc2c(NCc3cccs3)ncnc2c1
→ -22, -24, 0.62, -7%, -5.7, 1.9, -1, i, -1.5
Cc1ccc(S(=O)(=O)N/N=C/c2ccc(OCC(=O)NC(C)C)cc2)cc1
→ nt, nt, nt, -4%, nt, 3.7, 20, nt, nt
O=C(CSc1n[nH]c(-c2ccncc2)n1)Nc1ccc(F)cc1
→ -1, -2, 0.62, nt, -2.1, -1.4, 1, i, 3.4
O=C(NCc1ccco1)c1ccc(COCC(F)(F)F)cc1
→ nt, nt, 0.68, ?, nt, -1.5, -1, nt, nt
N/C(=N\N=C\c1ccc2c(c1)OCO2)c1nonc1N
→ 27, 20, nt, -10%, 15, 1.1, 50, i, -4.1
O=C(COc1ccc(S(=O)(=O)N2CCOCC2)cc1)Nc1ccc(Br)cc1
→ -22, -23, 0.69, nt, -0.9, 2.4, nt, i, -1.1
COc1ccc(C2(C(=O)NCC3CCCO3)CCOCC2)cc1 (centres undefined)
→ nt, nt, 0.72, 4%, nt, -0.7, -3, nt, nt
CC(C)N(C(=O)CSc1ncnc2sc(-c3ccccc3)cc12)C(C)C
→ nt, nt, 0.75, -10%, nt, -0.7, -1, nt, nt
COc1cc(OC)cc(OCC(O)Cn2cnc3cc(C)c(C)cc32)c1 (centres undefined)
→ -40, -73, 0.71, -3%, -5.8, -2.6, 0, i, -3.8
COc1cc(/C=C/C(=O)O)cc(S(=O)(=O)NCC2CCCO2)c1OC (centres undefined)
→ 12, 0, 0.71, 2%, -0.6, 0.9, nt, i, 2.4
Cc1ccc(S(=O)(=O)NCCN2CCOCC2)s1
→ 4, 0, 0.67, nt, -1.1, 2.6, 1, i, -1.5
CC(NS(=O)(=O)c1cc(C(F)(F)F)ccc1Cl)C(=O)N(C)C1CCN(C)CC1 (centres undefined)
→ 13, 7, 0.72, nt, 2.5, 8.3, -4, i, 2.4
CCn1nnc(NC(=O)c2cc(Cl)c(OC)c(Cl)c2)n1
→ nt, nt, 0.63, ?, nt, -1.9, nt, nt, nt
Cc1ccc(NC(=O)/C(=C/C=C/c2ccccc2)NC(=O)c2ccccc2)cc1
→ 8, 5, 0.74, 11%, 2.0, -1.3, -5, i, -3.8
O=C(c1cccc([N+](=O)[O-])c1)N1CCN(Cc2ccccc2)CC1
→ 5, -3, 0.67, -1%, -0.9, 2.7, -5, i, 0.4
